Vif A3G = HIV-1 Vif–A3G interaction blockers – biochemical, TR-FRET, GST-Vif 1-94, biotin-A3G peptide, dose response retest, primary screen (AID 1117319); inhibition, %; hits with a dose series show IC50 in µM; actives 0.57% (n = 260,000); TR-FRET GST-Vif / biotin-A3G peptide binding; higher % means a stronger effect; test concentration not given here; strong numbers were not always called active;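 active = above the screen mean plus three standard deviations and confirmed in dose response; inconclusive = results disagree or hit not tested in dose response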;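 also: Vif residues 1-94 fused to GST binding biotinylated APOBEC3G peptide 110-148; 0% = full assay without inhibitor and 100% = GST in place of GST-Vif; retest series ran down from 100 µM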
Ecoli rRNA inh = inhibits bacterial ribosomal RNA function over humanized ribosomes; E. coli WT GFP vs humanized-ribosome RFP mutants, fluorescence, 24 h; hits give low values; DMSO median 0, no signal -100; GFP signal change (wild-type ribosome), % (no concentration beside the values); actives 1.6% (n = 350,000); AID 720706;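 active = significant combined selectivity score with lowered wild-type GFP, culture density cut under 30%, mutant RFP and density less affected; inactive = any of these conditions unmet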; also: one replicate is shown; some compounds called inactive have numbers as strong as hits
ALR H2O2 inh = human ALR oxidase inhibition via reduced H2O2; P55789; purified ALR, DTT oxidation, H2O2 HRP-luminol luminescence; inhibition, % (concentration not given with the values); actives 3.8% (n = 290,000); AID 485317;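 active = mean and each replicate at 75% or more; inconclusive = only one of the two met; inactive = neither met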;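 also: stock transfer was 7.5 nL into about 7.5 µL; 0% = neutral wells and 100% = wells with inactivated enzyme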
Target sequence (P55789 whole entry, looked up): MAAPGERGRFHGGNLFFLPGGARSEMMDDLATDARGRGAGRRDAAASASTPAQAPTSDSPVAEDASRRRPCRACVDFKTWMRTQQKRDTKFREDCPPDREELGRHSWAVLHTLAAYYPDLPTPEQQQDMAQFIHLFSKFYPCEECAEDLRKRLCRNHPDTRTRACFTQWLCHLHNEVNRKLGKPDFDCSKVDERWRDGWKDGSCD
HNF4A DNA FP = change in binding of human HNF4 alpha to DNA | P41235 | HNF4a-FITC DNA binding, fluorescence polarization, 1 h | activity change, % at 10 µM | actives 0.3% (n = 360,000); in the data active = activity change above about 30%, passing the limit was not always enough;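 also: controls were the assay level and a saturating level of protein; the project sought stronger binding though the title names inhibitors; some compounds called inactive have numbers as strong as hits; positive values seem to mean higher polarization but the record does not say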
Target sequence (P41235 whole entry, looked up): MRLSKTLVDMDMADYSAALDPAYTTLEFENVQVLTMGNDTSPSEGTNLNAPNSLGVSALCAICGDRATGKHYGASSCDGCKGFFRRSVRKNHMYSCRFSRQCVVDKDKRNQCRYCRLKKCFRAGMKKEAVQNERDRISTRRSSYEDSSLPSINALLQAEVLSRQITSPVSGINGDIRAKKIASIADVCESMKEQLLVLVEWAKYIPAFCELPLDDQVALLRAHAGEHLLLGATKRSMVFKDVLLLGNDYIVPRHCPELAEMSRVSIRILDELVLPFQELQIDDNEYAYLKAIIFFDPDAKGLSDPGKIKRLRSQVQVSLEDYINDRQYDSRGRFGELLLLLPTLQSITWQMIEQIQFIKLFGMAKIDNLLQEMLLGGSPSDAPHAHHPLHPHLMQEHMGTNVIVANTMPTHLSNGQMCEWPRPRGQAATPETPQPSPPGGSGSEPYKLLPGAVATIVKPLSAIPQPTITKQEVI
Ecoli growth = blocks Escherichia coli growth; OD600, 23 h; hits give low values; OD600 absorbance (no concentration beside the values); actives 0.21% (n = 330,000);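 active = OD600 absorbance below the run mean of sample wells minus 3.6 SD, in any replicate, cut at about 0.56 in these data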;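 also: stock transfer was 300 nL into about 60 µL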
AF4-AF9 inh = inhibitors of human MLL-AF4/AF9 interaction. P42568. AlphaScreen, biotin-AF4 peptide binding to FLAG-AF9. inhibition, % at 10 µM. actives 0.47% (n = 350,000). AID 651704;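 active = every replicate reaching a set inhibition limit, whatever the replicate mean, cut at about 25% in these data; inconclusive = mean inhibition reaches that limit but some replicates miss it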;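 also: 0% = plate neutral control median and 100% = total signal loss; the record names both 10 and 1 µM as test concentration; the first replicate is given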
FGF22 binding = binders of recombinant human FGF22 by thermal shift; Q9HCT0; SYPRO orange fluorescence; percent of sucrose octasulfate shift, DMSO zero; calls only at 9.99 µM; actives 1.5% (n = 340,000);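 active = melting point raised past a set limit in the mean and every replicate; inconclusive = no clear call; three in four hits are not shown here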
Target sequence (Q9HCT0 whole entry, looked up): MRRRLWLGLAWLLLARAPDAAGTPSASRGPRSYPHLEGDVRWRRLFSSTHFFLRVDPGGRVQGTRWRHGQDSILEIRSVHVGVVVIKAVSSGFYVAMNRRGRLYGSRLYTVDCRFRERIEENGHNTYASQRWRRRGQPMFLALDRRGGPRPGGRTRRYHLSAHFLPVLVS
Ecoli rRNA inh OD600 = second read-out of Ecoli rRNA inh, no call of its own (marks repeat the call); OD600 change, %; measured here: OD600 growth;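 optical density of the mix in the first replicate; 0 = DMSO median and -100 = no signal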
Ecoli rRNA inh RFP = also measured in Ecoli rRNA inh; calls as there; RFP signal change, %; measured here: RFP humanized mutant strains;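 first replicate; 0 = DMSO median and -100 = no signal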
Starred values were filed as active, the others as inactive; i = inactive; ? = inconclusive; nt = no result given; & = joins results of further samples. Only part of the results is shown. The share of hits here may be higher or lower than overall.

Structure,Vif A3G,Ecoli rRNA inh,Ecoli rRNA inh OD600,Ecoli rRNA inh RFP,ALR H2O2 inh,HNF4A DNA FP,Ecoli growth,AF4-AF9 inh,FGF22 binding
Cn1c(C(=O)NCCCN2CCN(c3ccccc3F)CC2)cc2c(=O)n(C)c3ccccc3c21,-9%&-1%,-16,-34,2.5,-10,-0.5,0.73,9.9,i
COc1ccc(C2c3cc4c(cc3OC(NNC(N)=O)C2C)OCO4)cc1 (configuration not stated),4%,-23,-54,-2.5,nt,-1.9,nt,5.5,i
O=C(COC(=O)COc1cccc(F)c1)Nc1nc2ccccc2s1,nt,3,8,0.5,0,-3.2,0.71,-0.5,i
Cc1nc2ccc(Br)cc2c(=O)n1Cc1cccs1,nt,-32*,1.0*,-2.5*,nt,2.7,0.69,-0.5,i
O=C(Cc1ccc(F)cc1)N1CCN(c2ccc([N+](=O)[O-])cc2)CC1,nt,-1,1,2.2,2,3.1,0.7,0.7,i
COc1ccccc1NC(=O)c1ccc(NC(=O)COC(=O)c2cccnc2Cl)cc1,-5%,0,12,2.5,0,1.1,0.65,1.0,i
CCOC(=O)C(=O)Nc1nc(-c2ccccc2)c(CC)s1,0%,nt,nt,nt,-75,-0.6,0.73,nt,nt
CCOc1ccccc1N1CCN(CC(O)COC2CCCc3ccccc32)CC1 (configuration not stated),nt,-6,-23,3.2,13,-2.9,0.65,10,i
Cc1cccc(CCNS(=O)(=O)c2ccc(S(=O)(=O)N3CCCCC3)cc2)c1,2%,14,10,0.2,-8,2.0,0.77,-7.6,i
CC(C)[C@@H](CO)NC(=O)c1ccc2c3n(nc2c1)-c1ccccc1CO3,nt,-10,-4,0.0,-3,2.0,nt,-15,i
O=Cc1c(F)cccc1N1CCCC1,nt,nt,nt,nt,-6,-1.7,0.65,-0.4,i
O=C(Nc1ccccc1N1CCCC1)C1=COCCO1,4%,11,9,0.5,nt,1.4,0.67,0.7,i
COc1ccccc1Nc1ccc(C(=O)O)cc1[N+](=O)[O-],nt,0,3,-1.3,4,-0.6,0.68,-0.4,nt
c1ccc2c(-c3c[nH]c4ccccc34)c3ccccc3nc2c1,-2%,nt,nt,nt,0,-2.0,0.75,nt,nt
CCn1cc(/C=C2/SC(=S)NC2=O)c(C)n1,9%,nt,nt,nt,10,0.5,0.7,nt,nt
COC(=O)CC(N)c1ccc(Br)cc1 (configuration not stated),nt,20,22,0.7,-3,0.8,0.63,1.7,i
O=S(=O)(c1cccs1)N1CCC2(CC1)OCCO2,nt,3,-5,-2.6,-6,3.4,0.68,-0.8,i
Cc1cccc(C)c1NC(=O)CNC(=O)c1ccc(N2CCCC2)c([N+](=O)[O-])c1,nt,nt,nt,nt,nt,-3.8,0.72,-0.6,i
O=C(COC(=O)c1cccc(O)c1)Nc1ccc(N2CCOCC2)cc1,2%,2,-5,-3.4,16,-0.1,0.7,-7.4,i
O=C(CC(F)(F)F)N1C[C@H]2[C@@H](c3ccccc31)[C@@H](CO)N2C(=O)c1cccnc1,nt,-1,4,-2.5,nt,nt,nt,-1.8,i
C[C@@H]1CN([C@H](C)CO)C(=O)c2cc(NC(=O)CCCN(C)C)ccc2O[C@@H](C)CCCCO[C@@H]1CN(C)S(=O)(=O)c1ccc(F)cc1,nt,-1,2,1.8,nt,nt,nt,1.7,i
CC(=O)c1cccc(OCCCOc2cccc3cccnc23)c1,nt,-24,-24,-2.8,-23,-0.5,0.64,0.2,i
CC1(C)Cc2c(ccc3ccccc23)C(NNC(=O)c2cccnc2)=N1,7%,nt,nt,nt,1,-3.0,0.81,nt,nt
COc1ccc2[nH]c(=O)c(C(c3nnnn3C3CCCCC3)N3CCN(C)CC3)cc2c1 (configuration not stated),?,nt,nt,nt,-13,0.5,0.7,nt,nt
Cc1c(C(=O)N2CCN(c3ccccc3F)CC2)oc2c1C(=O)CC(C)(C)C2,3%,-3,-4,1.7,2,-1.9,0.73,-0.9,i
c1ccc(C(c2nnnn2Cc2ccco2)N2CCN(c3nc4ccccc4s3)CC2)cc1 (configuration not stated),2%,nt,nt,nt,0,-0.9,0.76,nt,nt
Cc1cc(C)cc(OCC(=O)N(C)CC(=O)Nc2ccc(Cl)c(C(F)(F)F)c2)c1,-13%,nt,nt,nt,-1,-3.0,0.68,-2.5,i
CC(C)[C@@H]1COCc2cn(nn2)CC[C@@H](Cc2ccccc2)C(=O)N1,nt,3,-12,-1.9,nt,nt,nt,-1.0,i
Cc1cccc(N=C2NC(=O)S/C2=C\c2ccco2)c1,nt,-12,0,2.9,-6,-8.2,0.7,-0.5,i
C[C@@H]1CN([C@@H](C)CO)S(=O)(=O)c2ccc(-c3ccncc3)cc2O[C@@H]1CN(C)Cc1ccccc1,nt,-1,-1,0.5,nt,nt,nt,3.8,i
O=C(Nc1cccc(F)c1)N1C[C@H]2[C@@H](c3ccccc31)[C@@H](CO)N2C(=O)C1CCOCC1,nt,1,5,10,nt,nt,nt,-1.9,i
C[C@@H]1CN([C@H](C)CO)C(=O)c2cc(C3=CCCC3)cnc2O[C@@H]1CN(C)C(=O)C1CCOCC1,nt,4,4,-2.5,nt,nt,nt,-1.4,i
COCCn1c(SCC(=O)NNC(=O)c2cc(Cl)ccc2OC)nnc1-c1ccncc1,-7%,-1,3,-1.8,nt,1.7,0.65,7.0,i
C[C@@H]1CN([C@H](C)CO)C(=O)Cc2cc(NC(=O)Nc3ccccc3)ccc2O[C@@H]1CN(C)S(=O)(=O)c1cccs1,nt,-3,-7,2.2,nt,nt,nt,4.2,i
CC(OC(=O)Cc1n[nH]c(=O)c2ccccc12)C(=O)Nc1ccccc1[N+](=O)[O-] (configuration not stated),-6%,5,0,0.8,-6,-2.2,0.71,-1.3,i
CN1CCC(=NNC(=O)CN(c2cccc(Cl)c2)S(C)(=O)=O)CC1,-1%,19,22,1.8,9,0.6,0.74,-0.1,i
CC(=O)N1CCN(Cc2nc3cc(NC(=O)Nc4ccccc4)ccc3n2C)CC1,12%,9,3,-1.6,nt,-0.5,0.66,-0.7,i
CCOCCCNC(=O)C1(O)c2cc(Br)ccc2NC(=O)N1c1cccc(OC)c1 (configuration not stated),-2%,8,7,-2.0,-8,-0.7,0.65,0.2,i
COc1cc2oc(=O)c3c(c2cc1OCC(=O)c1c(C)n(C)c2ccccc12)CCCC3,nt,nt,nt,nt,-8,-5.0,0.68,nt,nt
CC(C)C(=O)N1CCC1(C)C(=O)NCc1cc(Cl)ccc1F (configuration not stated),nt,4,7,-4.9,nt,0.9,nt,-2.3,i
COc1ccc(S(=O)(=O)Nc2ccc3c(c2)C(=O)N([C@@H](C)CO)C[C@@H](C)[C@H](CN(C)C(=O)Cc2ccccc2)OCCCC[C@@H](C)O3)cc1,nt,0,-5,-0.1,nt,nt,nt,-3.8,i
Cc1cc(C)nc(SCc2n[nH]c(=S)n2C)n1,-5%&1%,nt,nt,nt,50,-0.3,0.72,nt,nt
N#CC1=C(N)C(C#N)(C#N)C(c2ccncc2)C2CN(C(=O)OCc3ccccc3)CC=C12 (configuration not stated),11%,nt,nt,nt,10,5.5,0.72,nt,nt
Cc1cc(C)n(-c2ccc(C(=O)C(C#N)c3nc4ccccc4n3C)cc2)n1 (configuration not stated),-2%,nt,nt,nt,-5,-0.7,0.7,nt,nt
CCOc1ccc(NC2=NCC(=O)N2CCc2ccccc2)cc1,7%,nt,nt,nt,-18,4.3,0.71,nt,nt
COc1ccc(Nc2nc(=O)c3cc([N+](=O)[O-])ccc3s2)cc1,-13%,-1,-10,-6.1,nt,-1.0,0.7,-4.4,i
Cc1cc(C(=O)COC(=O)c2ccncc2)c(C)n1CCc1ccc(F)cc1,9%,14,10,8.9,0,9.8,0.68,1.7,nt
C[C@H](CO)N1C[C@H](C)[C@@H](CN(C)S(=O)(=O)c2cn(C)cn2)OCCCC[C@H](C)Oc2ccc(NC(=O)Nc3ccc4c(c3)OCO4)cc2C1=O,nt,-3,-5,-1.7,nt,nt,nt,1.3,i
COC(=O)C1C2CC3c4[nH]c5cc(OC)ccc5c4CCN3CC2CC(O)C1OC (configuration not stated),nt,nt,nt,nt,nt,8.0,nt,3.9,i
Nc1nnc(SCc2ccc3c(c2)OCO3)s1,11%,nt,nt,nt,-18,0.1,0.67,nt,nt

Later entries.
Structure,Vif A3G,Ecoli rRNA inh,Ecoli rRNA inh OD600,Ecoli rRNA inh RFP,ALR H2O2 inh,HNF4A DNA FP,Ecoli growth,AF4-AF9 inh,FGF22 binding
COc1ccc(CNC(=O)C[C@H]2C[C@@H]3c4cc(NS(C)(=O)=O)ccc4O[C@@H]3[C@@H](CO)O2)cc1,nt,-3,3,-2.5,nt,nt,nt,-1.0,i
COc1ccccc1N(CN1CCCC1=O)C(=O)c1c(F)cccc1Cl,5%,nt,nt,nt,0,-0.7,0.71,nt,nt
CCN(CC)S(=O)(=O)c1ccc(/C=C/C(=O)OCC(=O)N(C(C)C)C(C)C)cc1,6%,10,-12,-1.9,-5,4.2,0.74,1.0,i
CN1C(=O)c2cc(NC(=O)c3ccccc3Cl)ccc2OC[C@H]2O[C@H](CC(=O)O)CC[C@H]21,nt,3,0,-0.8,nt,nt,nt,-2.3,i
CCOC(=O)C1=C(c2ccccc2)Nc2ncnn2C1c1cccc(OC)c1OC (configuration not stated),14%,nt,nt,nt,nt,-0.4,0.81,nt,nt
CNC(=O)N(O)C1N(/N=C/c2ccccc2OC)C(=S)SC1(C)C (configuration not stated),6%,13,15,1.7,1,2.8,nt,-16,i
N#C[C@H]1[C@@H](c2ccc(C3=CCCCC3)cc2)[C@H](CO)N1S(=O)(=O)c1cccc(F)c1,nt,1,0,0.4,nt,nt,nt,3.7,i
COc1ccccc1NC(=O)c1ccc(NS(C)(=O)=O)cc1,16%,nt,nt,nt,-6,-4.5,0.67,nt,nt
CCCNC(=O)Nc1ccc2c(c1)C(=O)N(C)C[C@@H](OC)[C@@H](C)CN(C)[C@H](C)CO2,nt,1,13,-2.4,nt,nt,nt,0.1,i
CN(CC1CCCO1)S(=O)(=O)c1ccc(C(=O)Nc2nnc(-c3ccccc3)o2)cc1 (configuration not stated),2%,-15,-48,-5.4,46,0.1,0.69,0.5,i
CCC(C)[C@H](NC(=O)NCCCN1CCOCC1)C(=O)OC (some centres not stated),3%,nt,nt,nt,-3,0.2,0.71,nt,nt
O=C(NCc1ccccc1)c1ccc(Cn2cc(C(F)(F)F)ccc2=O)cc1,7%,nt,nt,nt,-11,1.7,0.71,nt,nt
CC1CCCCC1NC(=O)COC(=O)CNC(=O)c1cccc(F)c1 (configuration not stated),2%,7,9,-0.1,0,4.4,0.64,-0.3,i
CCCN1CCCc2cc(CN(CCCN3CCOCC3)C(=O)Nc3ccc(OCC)cc3)ccc21,17%,nt,nt,nt,99*,0.6,0.7,nt,nt
C[C@H]1CN([C@@H](C)CO)S(=O)(=O)c2ccc(C#Cc3ccccc3F)cc2O[C@@H]1CN(C)CC1CCOCC1,nt,-11,-11,6.5,nt,nt,nt,-6.4,i

One compound at a time, from the list above. Order of values: Vif A3G | Ecoli rRNA inh | Ecoli rRNA inh OD600 | Ecoli rRNA inh RFP | ALR H2O2 inh | HNF4A DNA FP | Ecoli growth | AF4-AF9 inh | FGF22 binding
Record of CCN(CC)S(=O)(=O)c1ccc(/C=C/C(=O)OCC(=O)N(C(C)C)C(C)C)cc1 : 6% | 10 | -12 | -1.9 | -5 | 4.2 | 0.74 | 1.0 | i
Record of O=C(NCc1ccccc1)c1ccc(Cn2cc(C(F)(F)F)ccc2=O)cc1 : 7% | nt | nt | nt | -11 | 1.7 | 0.71 | nt | nt
